# BJeLR viability: MLPCN primary cell-based screen for lethality selective to Ras in HRASV12 cells | BJeLR (HRASV12) viability, CellTiter-Glo ATP luminescence, 48 h; reference of the scale not given here | inhibition, % (test concentration not listed) | actives 0.17% (n = 300,000);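 active = replicate mean above 50%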;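 also: 50 nL library stock added to about 25 µL; numbers are from one replicate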
# Autofluor counter: compound fluorescence in toxin protease inhibitor counterscreen; actives 3.1% (n = 360,000); compound autofluorescence counterscreen, microsphere flow cytometry; hits give high values; fluorescence intensity (no concentration beside the values);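 active = at least 3 SD above the mean of all compounds, about 16000 in these data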;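 also: 100 nL of 1 mM stock went into each well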
# Sa ugtP lethal: growth inhibition of ugtP-null S. aureus, primary screen, RN4220 ugtP deletion, OD600 | 16 h; some inactives read as strong as hits | growth inhibition, % (concentration not given with the values) | actives 0.54% (n = 330,000) | AID 1259309, 2017;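 active = z-score under -3 and OD600 up to 0.15 on both plates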;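 also: plate controls were untreated wells for no effect and antibiotic for full effect; wells of about 80 µL received 100 nL stock; the first replicate is given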
# Mtb hypoxia rep: PubChem AID 1159583 | M. tuberculosis hypoxia-regulated fluorescent reporter, fluorescence | fluorescence inhibition, % (test concentration not listed) | actives 0.1% (n = 300,000);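 active = 35 to 45% if threefold the growth effect, above 45% if 1.5-fold the growth effect; inactive = the rest, general growth blockers included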;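 also: wells of about 50 µL received 100 nL stock; 0% = vehicle wells and 100% = reference inhibitor wells; whole bacteria with a GFP reporter of the hypoxia response; strong numbers were not always called active; many hits fall short of the cut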
# PrP UTR inh: inhibition of PrP 5' UTR reporter expression | cell-based PrP 5' UTR mRNA reporter, plate reader | AID 488862, 2010 | actives 0.35% (n = 340,000) | inhibition, % (no concentration beside the values);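 active = every replicate at 50% or more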;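 also: 0 = median of the neutral control wells; tested in H4 reporter cells; numbers are from one replicate; inactives centre near -14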
# Sa RN4220 lethal: growth inhibition of S. aureus RN4220, primary screen, OD600. 16 h. inhibition, % (concentration not given with the values). actives 0.33% (n = 330,000);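 active = z-score of -3 or lower and OD600 up to 0.18 on both plates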;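 also: plate controls were untreated cells for no effect and reference antibiotic for full effect; stock transfer was 100 nL into about 80 µL; one replicate is shown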
# Mtb hypoxia rep growth: further read-out of Mtb hypoxia rep, marked with its call; growth inhibition, %; measured here: M. tuberculosis growth (absorbance);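 0% = vehicle and 100% = reference antibiotic; read after six days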
# * marks the source's active call; other numbers are inactive results; / = no result given.
SMILES,BJeLR viability,Autofluor counter,Sa ugtP lethal,Mtb hypoxia rep,Mtb hypoxia rep growth,PrP UTR inh,Sa RN4220 lethal
Cc1cc(-c2nnnn2-c2ccc(F)cc2)no1,-9,/,-6,-8,3,-11,-3.8
COc1ccc(S(=O)(=O)N2CCOCC2)cc1NC(=O)COc1ccccc1,-2,4833,-1,8,7,-7,3.6
O=c1c2ccccc2nc(/C=C/c2cc(Br)ccc2O)n1CCCO,-9,3456,-8,-4,2,10,1.7
O=C(O)c1cc(S(=O)(=O)N2CCOCC2)ccc1N1CCOCC1,5,/,-1,/,/,-1,-3.8
Clc1ccc(CN2CCN(c3ccccc3)CC2)cn1,0,4369,4,5,7,-19,-3.5
O=C(CSc1nc2nn(-c3ccccc3)c(=O)c-2c2n1CCCCC2)Nc1ccccc1[N+](=O)[O-],/,6121,-6,4,11,-16,-1.0
CCNC(=S)N(CCCN(C)C)Cc1cc2cc3c(cc2[nH]c1=O)OCCO3,-16,4600,-1,-1,0,-18,2.7
COc1ccc(CC(=O)N2CC(C)CC(C)C2)cc1 (centres undefined),-3,10216,1,14,6,2,0.9
COc1ccc(/C=C2\SC(=S)N(CCC(=O)Nc3ccc(C(=O)O)cc3)C2=O)cc1,-10,3767,9,5,-12,-16,13
CCC(=O)Nc1cccc(-n2nnnc2SCC(=O)c2ccc(C)c(C)c2)c1,-6,2246,-20,0,-4,-54,5.7

# Taken from above:
# COc1ccc(CC(=O)N2CC(C)CC(C)C2)cc1 (centres undefined) | Sa ugtP lethal = 1
# Cc1cc(-c2nnnn2-c2ccc(F)cc2)no1 | Sa RN4220 lethal = -3.8

# Other records follow.
SMILES,BJeLR viability,Autofluor counter,Sa ugtP lethal,Mtb hypoxia rep,Mtb hypoxia rep growth,PrP UTR inh,Sa RN4220 lethal
O=C(COc1ccccc1C(=O)NCc1ccccn1)Nc1ccc(Br)cc1,-6,4443,0,9,9,-22,0.0
O=C(O)c1ccc(NN=C/C(Br)=C/c2ccccc2)cc1,/,/,0,2,13,/,-2.0
CS(=O)(=O)c1ccccc1-c1nnc(NC(=O)C2=COCCO2)o1,-4,7304,0,-4,-2,-16,1.9
CC1=CC(C2CC(=O)N(c3ccccc3C)C2=O)CC2C(=O)N(c3ccccc3C)C(=O)C12 (centres undefined),-7,2283,10,8,1,-25,4.1
COc1ccc(S(=O)(=O)N2CCC(C(=O)Nc3ccccc3N3CCCC3)CC2)cc1OC,3,5861,4,-6,9,-7,0.7
COc1ccc(CNC(=S)NCc2ccc(OC(C)C)cc2)cc1,-10,2639,-8,-22,-6,-24,-3.0
O=C1NC(=O)C2(CCCC2)N1,/,4200,1,4,11,-1,1.6
CC(C)CC(=O)NC(c1ccccc1)c1c(O)ccc2ccccc12 (centres undefined),0,4105,9,5,2,-12,3.8
Cc1cccc(C(=O)NN2C(=O)C3C(c4ccccc4)C=CC(c4ccccc4)C3C2=O)c1 (centres undefined),17,2475,-11,14,3,-18,-2.5
CC(OC(=O)c1ccccc1CCc1ccccc1)C(N)=O (centres undefined),-1,3957,16,2,-9,-18,4.9
O=C(Nc1nnc(C2CC2)s1)C1CC(=O)N(c2ccc3c(c2)OCCO3)C1 (centres undefined),3,9206,-7,-9,-11,-5,-6.3
O=S1(=O)CCOC[C@H](Cc2ccccc2)N1Cc1ccccc1F,2,3712,/,/,/,-34,/
COc1cccc(CN2CCN(C(=O)Nc3ccc([N+](=O)[O-])cc3)CC2)c1,-8,4522,12,2,4,-22,9.8
Cc1ccc(C(=O)O/N=C2\CCS(=O)(=O)c3sccc32)cc1,-7,2808,/,/,/,-24,/
O=C(Cc1cccc2ccccc12)NNC(=O)c1ccc(Br)o1,1,3855,1,-3,6,-37,3.1
COc1ccc(NC(=O)CC2S/C(=N\c3nccs3)N(C)C2=O)cc1 (centres undefined),5,2460,/,/,/,-4,/
CCCC(=O)NC(c1ccc(OC)c(OC)c1)c1c(O)ccc2ccccc12 (centres undefined),-2,23446*,19,10,5,-9,4.0
COc1ccc2nc(NS(=O)(=O)c3ccc(NC(C)=O)cc3)sc2c1,3,7260,13,5,2,-14,5.0
Cc1ccc(C)c(OCCC(=O)NNC(=O)c2cc(C)oc2C)c1,/,3944,4,6,8,-9,3.8
O=C(c1ccc(-c2cccc(C(F)(F)F)c2)o1)N1CCN(c2ccccc2O)CC1,6,5429,-11,0,7,-9,3.9

# Ordered by molar mass (falling): 20 of the compounds above.
SMILES,BJeLR viability,Autofluor counter,Sa ugtP lethal,Mtb hypoxia rep,Mtb hypoxia rep growth,PrP UTR inh,Sa RN4220 lethal
COc1ccc(S(=O)(=O)N2CCC(C(=O)Nc3ccccc3N3CCCC3)CC2)cc1OC,3,5861,4,-6,9,-7,0.7
CC1=CC(C2CC(=O)N(c3ccccc3C)C2=O)CC2C(=O)N(c3ccccc3C)C(=O)C12 (centres undefined),-7,2283,10,8,1,-25,4.1
O=C(COc1ccccc1C(=O)NCc1ccccn1)Nc1ccc(Br)cc1,-6,4443,0,9,9,-22,0.0
O=C(c1ccc(-c2cccc(C(F)(F)F)c2)o1)N1CCN(c2ccccc2O)CC1,6,5429,-11,0,7,-9,3.9
CCC(=O)Nc1cccc(-n2nnnc2SCC(=O)c2ccc(C)c(C)c2)c1,-6,2246,-20,0,-4,-54,5.7
O=C(Nc1nnc(C2CC2)s1)C1CC(=O)N(c2ccc3c(c2)OCCO3)C1 (centres undefined),3,9206,-7,-9,-11,-5,-6.3
CCCC(=O)NC(c1ccc(OC)c(OC)c1)c1c(O)ccc2ccccc12 (centres undefined),-2,23446*,19,10,5,-9,4.0
COc1ccc2nc(NS(=O)(=O)c3ccc(NC(C)=O)cc3)sc2c1,3,7260,13,5,2,-14,5.0
COc1ccc(NC(=O)CC2S/C(=N\c3nccs3)N(C)C2=O)cc1 (centres undefined),5,2460,/,/,/,-4,/
O=C(Cc1cccc2ccccc12)NNC(=O)c1ccc(Br)o1,1,3855,1,-3,6,-37,3.1
COc1cccc(CN2CCN(C(=O)Nc3ccc([N+](=O)[O-])cc3)CC2)c1,-8,4522,12,2,4,-22,9.8
CS(=O)(=O)c1ccccc1-c1nnc(NC(=O)C2=COCCO2)o1,-4,7304,0,-4,-2,-16,1.9
O=S1(=O)CCOC[C@H](Cc2ccccc2)N1Cc1ccccc1F,2,3712,/,/,/,-34,/
COc1ccc(CNC(=S)NCc2ccc(OC(C)C)cc2)cc1,-10,2639,-8,-22,-6,-24,-3.0
Cc1ccc(C(=O)O/N=C2\CCS(=O)(=O)c3sccc32)cc1,-7,2808,/,/,/,-24,/
CC(C)CC(=O)NC(c1ccccc1)c1c(O)ccc2ccccc12 (centres undefined),0,4105,9,5,2,-12,3.8
Cc1ccc(C)c(OCCC(=O)NNC(=O)c2cc(C)oc2C)c1,/,3944,4,6,8,-9,3.8
CC(OC(=O)c1ccccc1CCc1ccccc1)C(N)=O (centres undefined),-1,3957,16,2,-9,-18,4.9
COc1ccc(CC(=O)N2CC(C)CC(C)C2)cc1 (centres undefined),-3,10216,1,14,6,2,0.9
O=C1NC(=O)C2(CCCC2)N1,/,4200,1,4,11,-1,1.6

# New compounds follow
SMILES,BJeLR viability,Autofluor counter,Sa ugtP lethal,Mtb hypoxia rep,Mtb hypoxia rep growth,PrP UTR inh,Sa RN4220 lethal
CCCCn1c(N)c(N(CCOC)C(=O)CN(C)CC(=O)Nc2ccc(Cl)c(Cl)c2)c(=O)[nH]c1=O,/,3771,-12,4,5,-17,-6.7
CCOCC(=O)Nc1cc(C(F)(F)F)ccc1Oc1cccc(Br)c1,0,2403,-7,15,7,-27,-25
CC1(N2CCOCC2)CC2(O)C(=[N+]1[O-])CCc1c2no[n+]1[O-] (centres undefined),-9,3144,-1,-81,-23,-4,3.7
COc1ccc(NS(=O)(=O)c2cc(Cl)ccc2Cl)cc1S(=O)(=O)N1CCCCC1,-3,2589,11,-2,11,-6,17
COC(=O)c1sccc1N/C=C(\C#N)S(=O)(=O)C(C)(C)C,-1,/,4,-3,-5,/,3.8
CCc1ccc(C(C(=O)NC2CCCC2)N(CCOC)C(=O)CCC(=O)Nc2cc(C)on2)cc1 (centres undefined),5,3253,-3,-1,2,-6,-2.6
O=C(c1ccccc1)N1CCN(c2ncnc3sc4c(c23)CCC4)CC1,12,3951,26,10,15,-11,2.4
COc1ccc(COCC(CC(C)C)N2CCN(C(=O)c3cccc(C(F)(F)F)c3)CCC2=O)cc1 (centres undefined),1,3021,8,4,3,0,7.5
COc1ccc(-c2nnc(SCC(=O)Nc3ccccc3)n2C)cc1,-1,9779,-1,9,10,-15,3.6
COc1ccccc1C(=O)N=c1sc2c(C)ccc(OC)c2n1C,-19,4467,3,9,5,-18,-4.8
Cc1ccc(NC(=O)c2ccc(Cl)cc2Cl)cc1O,-1,4666,1,14,22,12,-8.3
Cc1ccc(CNC(=O)C2CCC(=O)N2C2CCCCC2)cc1 (centres undefined),-14,5620,0,4,-1,-2,-2.9
CC(OC(=O)c1ccc(NC(=O)CC#N)cc1)C(=O)NCCC1=CCCCC1 (centres undefined),/,3808,-6,-9,-6,-3,-2.0
COc1ccc2nc(-c3ccccc3)cc(C(=O)OCC(=O)NC3CC3)c2c1,/,6594,-3,3,-4,-21,3.6
Cn1c(C(=O)N2CCN(Cc3ccc4c(c3)OCO4)CC2)cc2sccc21,-1,16552*,18,9,6,-11,2.7
CCc1ccc(S(=O)(=O)/N=C2\C=C(Nc3ccc(O)cc3)C(=O)c3ccccc32)cc1,48,5462,/,/,/,-22,/
O=C(COc1ccccc1)Nc1cccc(-c2ccc(N3CCOCC3)nn2)c1,-3,4146,3,2,1,-60,4.9
O=C(Nc1ccc(F)cc1)Nc1ccc2ccccc2n1,5,3724,-13,1,3,-32,4.3
CCN(CC)S(=O)(=O)c1cccc(C(=O)OC2CCOC2=O)c1 (centres undefined),-1,3439,5,-7,-7,-20,3.0
Cc1ccc(C)c(OC(=O)C2CSC3(C)CCC(=O)N23)c1C (centres undefined),/,6224,-1,-1,-1,-7,7.2
COC(=O)/C(=C\C(=O)c1ccc([N+](=O)[O-])cc1)Nc1ccc(OC)cc1,5,5980,-15,-3,-25,/,-3.3
CN(C)c1ccc(C(=O)OCC(=O)NC2CCCCC2)cc1,-1,3781,11,8,4,-1,4.6
COc1ccc(-c2cc(=O)c3cc(OC)ccc3o2)cc1,-9,5089,1,/,/,21,4.8
CCOc1ccc(C(C)NC(=O)C2CCN(S(=O)(=O)c3ccc(OC)cc3)CC2)cc1OCC (centres undefined),/,/,1,5,8,-11,3.3
CCOC(=O)N1CCN(C(=O)COC(=O)CNC(=O)c2ccc(OCC)c(OCC)c2)CC1,/,4872,9,2,-6,-16,0.3
COc1ccc(N2C(=S)N=C(Nc3cccc(C)c3)C23CCCCC3)cc1,-1,2345,2,-13,-3,-9,-2.9
O=S(=O)(c1ccc(-n2cnnn2)cc1)N(C1CCCCC1)C1CCCCC1,6,5879,-15,-1,2,-8,-0.5
CN(CC(=O)Nc1sccc1C(N)=O)S(=O)(=O)c1ccc(Cl)cc1,/,3883,-9,-3,6,-15,-3.8
CC1CC(C)CN(CCCNC(=O)Cn2ncc3c([nH]c4ccccc43)c2=O)C1 (centres undefined),2,6274,1,0,-5,8,1.2
O=C1N/C(=N\N=Cc2ccco2)SC1Cc1ccccc1[N+](=O)[O-] (centres undefined),/,/,6,-1,-13,/,12
CS(=O)(=O)c1ccc2nc(NC(=O)Nc3ccc(Cl)c(Cl)c3)sc2c1,2,2345,-1,2,2,-10,0.9
CN(C)c1cncc(C(=O)O)c1,-8,2136,-4,-8,-6,-24,3.3
Cc1ccc(C)c(OCCCCN2CCNCC2)c1C,-7,4319,-3,6,13,-4,-0.8
Fc1cccc(F)c1/C=N/N1CCOCC1,2,2784,/,/,/,-6,/
N#C/C(=C\N1CCOCC1)S(=O)(=O)c1ccc(Cl)cc1,9,/,12,11,9,/,2.4
COc1cccc(CNC(=O)C(c2ccc(Cl)cc2)C(C)C)c1 (centres undefined),12,8725,-2,11,10,-14,3.2
Cc1ccc2nc(Cl)c(C=NNC(=O)c3ccccc3O)cc2c1,/,/,1,8,3,/,7.3

# Screening data deposited in PubChem BioAssay by several laboratories.
